Sa growth inh: inhibitors of Staphylococcus aureus growth at 42 °C; S. aureus RN4220 growth, OD600, 20 h; stronger effect = lower value; relative growth, % (no concentration beside the values); 0.53% of 170,000 active; AID 720641;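 active = growth at 42 °C up to 50% and 20 or more points under that at 30 °C, or under 10% at both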;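 note: 300 nL library stock went into each well; scaled to the means of positive and negative controls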
GIV-Gai inh: GIV-Galpha-i interaction inhibition. percent of control (FP), % (no concentration beside the values). 0.42% of 210,000 active. P08753. Galpha-i3/FITC-GIV peptide fluorescence polarization, 90 min; stronger effect = lower value; scaled: aluminum fluoride 0%, vehicle 100%;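 active = replicate mean at 85% of control or lower, very high polarization wells dropped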;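 note: wells of about 15 µL received 100 nL stock; the first replicate is given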
Target sequence (P08753 whole entry, looked up): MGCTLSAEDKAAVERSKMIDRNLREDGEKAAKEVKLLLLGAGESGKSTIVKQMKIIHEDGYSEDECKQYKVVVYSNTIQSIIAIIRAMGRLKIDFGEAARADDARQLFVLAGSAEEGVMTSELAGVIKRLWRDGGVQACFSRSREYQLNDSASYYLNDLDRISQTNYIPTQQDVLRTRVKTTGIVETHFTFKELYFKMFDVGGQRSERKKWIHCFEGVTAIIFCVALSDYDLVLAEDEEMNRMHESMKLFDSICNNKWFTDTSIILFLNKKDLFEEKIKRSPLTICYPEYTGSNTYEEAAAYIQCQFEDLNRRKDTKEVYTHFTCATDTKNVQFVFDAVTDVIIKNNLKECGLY
HCMV NEC inh: disrupts HCMV UL50-UL53 complex binding; HTRF UL50-UL53 interaction, normalized percent inhibition; 0.15% of 190,000 active; inhibition, % (test concentration not listed);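 active = both replicates at 50% or more, plus weaker picks with an unusually low signal ratio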;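 note: stock transfer was 100 nL into about 20 µL; 0% = negative control wells and 100% = wells with untagged competitor protein; inactives centre near -12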
Sa growth inh second temp: further read-out of Sa growth inh, marked with its call; relative growth, %; measured here: growth at 30 °C;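 optical density after 20 h as mean of two plates; 100% = untreated growth and lower means inhibition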
* marks the source's active call; other numbers are inactive results; . = no result given; & = joins results of further samples.

Every second line gives: Sa growth inh	Sa growth inh second temp	GIV-Gai inh	HCMV NEC inh
O=C1CC(c2nc3ccccc3[nH]2)CN1CCc1ccccc1 (configuration not stated)
 : 83.1	75.8	100.3	-20.3
COc1cccc(CNCCNC(=O)c2nonc2N)c1
 : 95.6	92.7	102.2	-4.9
CCc1ccccc1NC(=O)CCn1cnc2c(c(C)c(C)n2-c2ccccc2)c1=O
 : .	.	107.0	-11.3
Nc1nc2[nH]c(=O)cnc2c(=O)[nH]1
 : .	.	106.1	-18.8
CN1CCCc2cc(C(CNC(=O)c3ccc(Cl)cc3)N3CCCC3)ccc21 (configuration not stated)
 : .	.	102.9	-20.7
COc1cc2nc3c4ccccc4n(C(C)C)c3nc2cc1OC
 : .	.	108.2	-2.1
Cc1ccc2c(=O)cc(C(=O)Nc3ccc(S(=O)(=O)N(C)c4ccccc4)cc3)oc2c1C
 : 93.7	91.5	103.0	5.5
CCCN(Cc1cccs1)C(=O)Nc1cc(Cl)ccc1C
 : 101.5	84.4	96.9	-18.9
CCOC(=O)c1sc(=S)n(Cc2ccco2)c1C
 : 98.3	71.8	103.9	-16.2
Cc1ccc2nc(NC(=O)c3ccc(Cn4cc(Cl)cn4)o3)sc2c1
 : 92.7	84.9	100.3	2.2
CCOC(=O)c1cccc(NC(=O)[C@H](CSCc2ccccc2)N2Cc3ccccc3C2=O)c1
 : 111.3	91.3	105.4	-37.6
CNC(=O)n1nccc1-c1ccc(-c2cccs2)s1
 : 88.3	59.9	100.3	-5.6
Cc1ccc(C)c(N2CCN(c3nc4ccccc4n4nnnc34)CC2)c1
 : 102.9	83.6	107.3	-33.0
C=CCNc1nc(Nc2ccc(OC)cc2)nc(OC)n1
 : 100.9	63.6	103.0	-3.2
Cc1sc2ncnc(N3CCOCC3)c2c1-c1ccc(F)cc1
 : 96.6	95.0	.	-3.9
CCOC(=O)Cc1cc(=O)n2[nH]c(-c3ccccc3)cc2n1
 : 83.3&99.5	91.7&80.0	97.1&102.1	-18.5&2.7
CCOc1ccccc1CNCc1c(-c2ccc(CC)cc2)nc2ccccn12
 : .	.	96.3	0.2
CCc1ccc2[nH]c(=O)c(C(c3nnnn3Cc3ccccc3)N(Cc3ccccc3)Cc3ccco3)cc2c1 (configuration not stated)
 : 104.4	104.5	97.6	-6.6
CCOCCCNC(=O)C1=C(C)C(=O)OC12CCN(CC)CC2
 : .	.	103.6	-3.6
COc1ccc(CNC(=O)Cn2c(=O)c3cccn3c3cccnc32)cc1
 : 105.8	75.5	110.6	.
CC(=O)N1CCc2c(sc3nc(SCC(N)=O)n(-c4ccc(F)c(Cl)c4)c(=O)c23)C1
 : 99.1	79.9	100.3	-11.7
CC1=NN(c2ccc(C)c(C)c2)C(=O)/C1=C/c1ccc2c(c1)n(C)c(=O)n2C
 : 97.9	82.8	97.8	.
Cc1c(/C=C(\C#N)S(=O)(=O)C(C)(C)C)sc2ccccc12
 : 99.3	88.4	103.5	-1.6
CCOC(=O)COc1ccc(F)cc1C(=O)c1ccn2nc(-c3ccc(OC)cc3)cc2n1
 : .	.	102.6	-26.7
COc1ccc(-n2nnnc2SCSc2nnnn2-c2ccc(OC)cc2)cc1
 : 116.7	91.6	99.4	-14.8
CC(NC(=O)C1CCCCN1S(=O)(=O)c1cccc2nsnc12)C12CC3CC(CC(C3)C1)C2 (configuration not stated)
 : 129.5	83.2	.	-10.5
CS(=O)(=O)N1CCC(C(=O)NC2CCCC2)CC1
 : 114.8	82.4	104.8	.
O=C(O)c1cc2c3c(c1)C1C=CCC1C(c1ccc(Br)cc1)N3CC1CC=CC21 (configuration not stated)
 : .	.	108.3	-13.2
C=CCn1c(CN(c2ccc(F)cc2)S(C)(=O)=O)nnc1SCC(=O)c1ccccc1
 : .	.	99.1	-16.0
CCCNS(=O)(=O)C1CCS(=O)(=O)C1 (configuration not stated)
 : 93.0	97.3	102.7&101.1	0.9&-10.9
CC1CCN(C(=O)c2c(-c3ccccc3)nc3n2CCS3(=O)=O)CC1
 : .	.	104.3	19.1
CC(=O)Nc1ccc(/C=N/NC(=O)c2ccccc2-n2cccc2)cc1
 : 91.4	90.8	.	-41.5
NC1CCN(c2nc(-c3ccc(F)cc3)cs2)CC1
 : 108.8	81.5	101.2	-22.1
CCc1ccccc1Nc1nn2c(=O)c3ccc(C(=O)NC4CCCCC4)cc3nc2s1
 : 125.0	88.1	99.8	.
CCN(CC(=O)Nc1cccc(OC)c1)C(=O)Cn1c(=O)cnc2ccccc21
 : 74.6	81.8	.	-52.2
CS(=O)C1CCCCC1(O)CSc1nc(-c2cccs2)cc(-c2ccccc2)c1C#N (configuration not stated)
 : 52.5	77.0	100.7	.
COc1ccc(CCNC(=O)CCS(=O)(=O)c2cc3c(cc2Cl)NC(=O)CO3)cc1OC
 : 116.9	89.1	99.6	.
CC(C)(C)NC(=O)C1CC2CCCC(C1)C2=O (configuration not stated)
 : 104.4	83.4	.	-35.1
COC(=O)c1ccccc1NC(=S)NC(=O)/C=C/c1ccco1
 : 113.4	58.2	132.5	-14.6
O=C(NCc1ccco1)N(c1ccccc1)c1ccccc1
 : 95.6	72.2	103.4	-22.3
O=C1CCc2cc(S(=O)(=O)NCc3ccc(Cl)cc3)cc3c2N1CC3
 : 129.3	87.4	99.2	.
NC(Cc1ccc2nsnc2c1)C(=O)O (configuration not stated)
 : 91.5	100.2	101.5	-97.1
COC(=O)c1ncn2c1C(=O)N(CCC1=CCCCC1)C(C)(C(=O)NC1CCCCC1)C2 (configuration not stated)
 : .	.	107.3	-8.7
COC(=O)c1ccc(C2(C#N)C(=O)Nc3ccccc32)cc1 (configuration not stated)
 : 105.5	93.3	.	9.3
CCOc1ccccc1CNC(=O)c1cc(-c2ccc(Cl)s2)nc2ccccc12
 : 95.3	90.9	106.3	-14.4
CCCc1cc(=O)n(CC(=O)NCc2ccccc2Cl)c(-n2nc(C)cc2C)n1
 : 68.2	82.2	103.8	3.3
CC(=O)N1C(=O)C2(N=C(N)NC(Nc3cccc(C(F)(F)F)c3)=N2)c2ccccc21 (configuration not stated)
 : 73.2	90.1	106.9	1.5
COc1ccc(C)cc1NC(=O)Cn1c(=O)nc(-c2ccccc2F)c2cc(Cl)ccc21
 : 96.3	86.8	99.9	.
CC1SCC(NC(=O)c2ccccc2Cl)CS1 (configuration not stated)
 : 86.1	89.8	96.9	10.2
CC1(C)CC(NCc2ccccc2)=CC(=C(C#N)C#N)C1
 : 105.4	80.5	.	-27.5
CC(=O)Nc1nonc1Nc1cc(C)nn1-c1ccccc1
 : 104.5	82.7	.	-16.1
Cc1cccc(CSc2ncc(Cl)c(C(=O)Nc3sc4c(c3C(N)=O)CCCC4)n2)c1
 : 103.9	93.4	108.5	10.3
COc1ccc(-c2nc(CN(C)Cc3cccs3)cs2)cc1OC
 : 113.4	84.1	.	-26.2
COc1ccccc1N1CCN(C(=O)C2CCN(S(=O)(=O)c3cn(C)cn3)CC2)CC1
 : 97.2	91.8	99.5	.
S=C(NCc1ccccc1)N1CCn2cccc2C1c1cccnc1 (configuration not stated)
 : 96.1	35.9	98.8	7.7
Cc1cc(C)n(CCc2nc3c4ccccc4n(CC#N)c(=O)n3n2)n1
 : 106.1	90.0	102.2	2.0
Cc1cc(C)cc(OCC(=O)Nc2ccc(SCc3cc(=O)n4c(ncn4C(C)C)n3)cc2)c1
 : .	.	103.0	3.1
ClC(Cl)=Cn1nnnc1-c1ccccc1
 : 91.8	80.7	.	-31.6
O=C(O)C(C(=O)/C=C/c1ccccc1)=C1SCS1
 : 88.8	93.4	.	-1.6
FC(F)Oc1ccc(N=C=S)cc1
 : 92.2	77.1	.	0.7

Following part:
Every second line gives: Sa growth inh	Sa growth inh second temp	GIV-Gai inh	HCMV NEC inh
CCCC1(C(=O)OCC)NC(c2ccccc2F)C2C(=O)N(c3ccccc3)C(=O)C21 (configuration not stated)
 : 100.2	85.3	108.7	7.2
COCc1cc(C)nc2sc(C(O)c3ccccc3)c(NC(=O)c3ccco3)c12 (configuration not stated)
 : 101.6	86.0	.	-15.5
CC(C)C[N+]1(C)Cc2ccccc2C1
 : 98.2	88.7	104.5	.
CSc1sc(-c2ccnc(SCC(=O)C(C)(C)C)n2)c2c1C(=O)CC(C)(C)C2
 : 101.1	88.1	102.1	-21.1
Cc1ccc(NCC(O)CSc2nc3c(cc2C#N)CCCC3)cc1 (configuration not stated)
 : 122.7	96.2	102.6	7.4
O=C(CSC1=Nc2ccccc2N=C(c2ccccn2)C1)NC1CCc2ccccc21 (configuration not stated)
 : .	.	105.7	-10.3
CC(C)(C)C1CCc2c(sc(NC(=O)Cn3nnc(-c4cccc(C(F)(F)F)c4)n3)c2C#N)C1 (configuration not stated)
 : 85.3	91.7	102.8	-1.2
O=C(CN1CCC(O)(c2ccc(F)cc2)CC1)NCc1ccc(F)cc1
 : 96.4	97.6	105.1	-21.5
Cc1ccc(C)c(NC(=O)c2cnn(-c3cccc(F)c3)c2C2CCN(C(=O)OC(C)(C)C)CC2)c1
 : 116.3	105.3	102.4	.
O=C(C1CCCN(S(=O)(=O)c2cnc[nH]2)C1)N(CCc1ccccc1)Cc1ccccc1 (configuration not stated)
 : 108.6	91.8	106.3	6.6
O=C(NC(Cc1ccccc1)C(=O)Nc1nnc(-c2ccco2)o1)OCc1ccccc1 (configuration not stated)
 : 10.6	5.5	.	-21.3
CCN(c1ccccc1)S(=O)(=O)c1ccc(Cl)cc1
 : 88.3	112.7	107.1	-3.1
CCn1ccc2cc(S(=O)(=O)N3CCCN(C(=O)Nc4ccc5c(c4)OCCO5)CC3)ccc21
 : .	.	106.6	-14.0
O=C(CCc1nnc(SCC(=O)N2CCc3ccccc32)[nH]c1=O)OCC(=O)N1CCc2ccccc21
 : 93.4	95.2	.	-18.2
O=C1C2CC=C(Cl)CC2C(=O)N1CN(Cc1ccco1)CN1C(=O)C2CC=C(Cl)CC2C1=O (configuration not stated)
 : .	.	113.9	-39.0
N#Cc1c(-c2ccco2)cc(-c2ccccc2)[nH]c1=O
 : 78.3	65.2	106.4	8.8
CCCn1c(=O)[nH][nH]c1=S
 : 89.7	83.5	.	-11.5
COc1ccc(C(=O)c2oc3ccccc3c2NC(=O)C(C)(C)C)cc1
 : 94.7	84.3	102.7	.
CCOc1ccccc1C(=O)Nc1ccc2nc3c(c(Nc4ccc(OC)c(OC)c4)c2c1)CCCC3
 : 111.7	86.6	105.3	-44.2
COc1ccc(OCCC(=O)N2CCN(c3ccccc3)CC2)cc1
 : 109.4	98.6	101.9	-8.0
CCn1c(=O)c2c(C(=O)NCCOC)cc(=O)n(CC)c2n(C)c1=O
 : .	.	103.1	-13.4
CCn1c(=O)[nH]c(=O)c2cc(C(=O)c3cc(Cl)cc(Cl)c3O)cnc21
 : 85.9	89.7	.	-25.8
Brc1ccc2[nH]cc(C=Nc3ccc4c(c3)OCO4)c2c1
 : 104.6	79.2	.	-7.9
CCCOC(=O)C(C)Oc1ccc2c(=O)c(Oc3ccccc3Br)coc2c1 (configuration not stated)
 : .	.	101.7	-14.9
Cc1c(C)n(Cc2ccc(Br)cc2)c(=O)n(Cc2ccc(Br)cc2)c1=O
 : 80.9	74.1	101.0	-28.3
O=S(=O)(c1ccc2c(c1)OCCO2)N1CCC(n2cnc3cccnc32)CC1
 : .	.	105.6	-2.4

Quoted at random: 7 entries already listed
Every second line gives: Sa growth inh	Sa growth inh second temp	GIV-Gai inh	HCMV NEC inh
O=C(CN1CCC(O)(c2ccc(F)cc2)CC1)NCc1ccc(F)cc1
 : 96.4	97.6	105.1	-21.5
O=S(=O)(c1ccc2c(c1)OCCO2)N1CCC(n2cnc3cccnc32)CC1
 : .	.	105.6	-2.4
CSc1sc(-c2ccnc(SCC(=O)C(C)(C)C)n2)c2c1C(=O)CC(C)(C)C2
 : 101.1	88.1	102.1	-21.1
N#Cc1c(-c2ccco2)cc(-c2ccccc2)[nH]c1=O
 : 78.3	65.2	106.4	8.8
Brc1ccc2[nH]cc(C=Nc3ccc4c(c3)OCO4)c2c1
 : 104.6	79.2	.	-7.9
Cc1ccc(NCC(O)CSc2nc3c(cc2C#N)CCCC3)cc1 (configuration not stated)
 : 122.7	96.2	102.6	7.4
CCN(c1ccccc1)S(=O)(=O)c1ccc(Cl)cc1
 : 88.3	112.7	107.1	-3.1

Compound activity: PubChem, ICCB-Longwood Screening Facility, Harvard Medical School
